Assay outcomes (PubChem)
UUG fidelity = yeast start codon fidelity modulation; S. cerevisiae UUG-firefly luciferase reporter, luminescence/redox ratio; activity score, % at 18.7 µM; 0.13% of 350,000 active;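 active = replicate mean at a twofold rise or more, about +100% in these data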;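 also: firefly luciferase made from a UUG start codon reports start codon fidelity; reporter light over untreated wells divided by growth signal over untreated wells; some hits fall short of that in this replicate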
* = called active by the depositor. An excerpt; rates above refer to the full screens.

UUG fidelity	SMILES
-7	COc1ccc(S(=O)(=O)Nc2cccc3c2O[C@H](CN(C)Cc2ccncc2)[C@H](C)CN([C@@H](C)CO)C3=O)cc1
-3	CO[C@@H]1CN(C)C(=O)c2cc(NC(C)=O)ccc2OC[C@H](C)N(CCC(F)(F)F)C[C@H]1C
15	COc1cccc(-c2ccc([C@H]3[C@H](CO)N4CCCCN(CC5CC5)C[C@@H]34)cc2)c1
13	CO[C@H]1CN(C)C(=O)c2cc(NC(=O)C3CCCCC3)ccc2OC[C@H](C)N(Cc2cccnc2)C[C@@H]1C
5	CC(=O)N1[C@H](CO)[C@H](c2ccccc2)[C@@H]1CN(C(=O)c1cccc(F)c1)C(C)C
-4	COc1ccc(-c2ccc3c(c2)[C@@H]2[C@@H](CCN2S(=O)(=O)c2ccccc2C)[C@H](CO)N3C)cc1
-4	Cc1cccc(S(=O)(=O)N2C[C@H]3[C@@H](c4ccccc42)[C@H](CO)N3CC2CCCC2)c1
1	O=C(C[C@@H]1CC[C@H]2[C@@H](COC[C@@H](O)CN2Cc2ccncc2)O1)NCc1ccncc1

(more compounds)
UUG fidelity	SMILES
-12	CCC(=O)N1[C@H](CN(C)C(=O)CN2CCOCC2)[C@@H](c2ccccc2)[C@@H]1CO
-20	OC[C@H]1[C@@H](c2ccc(-c3cccc(F)c3)cc2)[C@@H]2CN(Cc3cncnc3)CCCCN12
-3	COCC(=O)Nc1ccc2c(c1)C(=O)N(C)C[C@H](OC)[C@@H](C)CN(CC1CCCCC1)[C@H](C)CO2
6	COCC(=O)N1[C@H](CO)[C@@H](c2ccccc2)[C@@H]1CN(C)C(=O)c1ccccc1
29	O=C(Nc1ccc(F)cc1)N1CCCCN2[C@H](CO)[C@H](c3ccc(C#Cc4ccccn4)cc3)[C@H]2C1
-6	Cc1ccc(S(=O)(=O)N(C)C[C@H]2OCc3ccccc3-c3c(n(C)c4ccccc34)C(=O)N([C@@H](C)CO)C[C@H]2C)cc1
-11	Cc1noc(C)c1S(=O)(=O)N(C)C[C@H]1OCc2cn(nn2)CCCC(=O)N([C@@H](C)CO)C[C@H]1C
8	Cc1cccc(S(=O)(=O)N2CC[C@@H]3[C@H](CO)N(C)c4ccc(Br)cc4[C@@H]32)c1

(list continues)
UUG fidelity	SMILES
-15	O=C(C1CCCCC1)N1C[C@@H]2[C@H](c3ccccc31)[C@@H](CO)N2C(=O)c1ccccc1
6	COc1ccccc1NC(=O)N1CCCCN2[C@H](CO)[C@@H](c3ccc(-c4cccc(F)c4)cc3)[C@@H]2C1
28	C[C@@H](O)C#Cc1ccc([C@@H]2[C@H](CO)N3CCCCN(S(=O)(=O)Cc4ccccc4)C[C@@H]23)cc1
-9	N#Cc1cccc(-c2ccc3c(c2)[C@H]2[C@H](CCN2Cc2cncnc2)[C@@H](CO)N3)c1
-13	C[C@H]1CN([C@@H](C)CO)C(=O)c2cc(NS(=O)(=O)c3cn(C)cn3)ccc2O[C@H]1CN(C)Cc1ccc2c(c1)OCO2
-5	CCCC(=O)Nc1ccc2c(c1)OC[C@@H](C)N(C(=O)c1cnccn1)C[C@@H](C)[C@@H](OC)CN(C)C2=O
-1	O=C(C[C@@H]1C[C@H]2c3cc(NS(=O)(=O)c4ccc(F)cc4)ccc3O[C@H]2[C@H](CO)O1)NCc1cc(F)ccc1F
6	Cc1noc(C)c1S(=O)(=O)Nc1cccc2c1O[C@H](CN(C)C(=O)Nc1ccc(F)cc1)[C@H](C)CN([C@@H](C)CO)C2=O

Next results
UUG fidelity	SMILES
27	CC(C)C#Cc1ccc([C@H]2[C@H](CO)N3CCCCN(C(=O)Nc4ccccc4)C[C@@H]23)cc1
-9	O=C(c1ccncc1)N1CC[C@@H]2[C@H](CO)Nc3ccc(Br)cc3[C@@H]21
-3	COc1ccc(CN(C)C[C@@H]2Oc3ccc(NS(=O)(=O)c4ccc(C)cc4)cc3C(=O)N([C@H](C)CO)C[C@H]2C)cc1
-3	C[C@H]1CN([C@@H](C)CO)C(=O)c2cc(NC(=O)Nc3ccc(C(F)(F)F)cc3)ccc2O[C@@H]1CN(C)C
-8	C[C@H]1CN([C@@H](C)CO)C(=O)c2cc(NS(=O)(=O)c3cn(C)cn3)ccc2O[C@H]1CN(C)C(=O)NC1CCCCC1
3	CCCNC(=O)C[C@@H]1C[C@@H]2c3cc(NC(=O)c4ccc5c(c4)OCO5)ccc3O[C@@H]2[C@@H](CO)O1
-10	O=C(Nc1ccc(Cl)cc1)N1C[C@H]2[C@@H](c3ccccc31)[C@@H](CO)N2CC1CCCC1
-10	CC(C)NC(=O)N1C[C@@H]2[C@H](c3ccccc31)[C@@H](CO)N2Cc1ccccn1

(more compounds)
UUG fidelity	SMILES
13	CC(C)CC#Cc1ccc2c(c1)O[C@@H](CN(C)Cc1ccccc1F)[C@H](C)CN([C@@H](C)CO)S2(=O)=O
-2	C[C@@H]1CN([C@H](C)CO)C(=O)Cc2cc(NS(C)(=O)=O)ccc2O[C@H]1CN(C)C
0	Cc1ccc(S(=O)(=O)N2CC[C@@H]3[C@H]2c2cc(Br)ccc2N[C@@H]3CO)cc1
0	CCNC(=O)C[C@H]1CC[C@@H]2[C@@H](COc3ccc(NC(=O)c4ccc(F)c(F)c4)cc3C(=O)N2C)O1
-17	C[C@@H]1CN([C@@H](C)CO)C(=O)c2cc(NC(=O)Nc3ccc(C(F)(F)F)cc3)ccc2O[C@@H]1CN(C)C(=O)Nc1ccc2c(c1)OCO2
15	C[C@@H]1CN([C@@H](C)CO)C(=O)c2cccc(NS(=O)(=O)c3cccs3)c2O[C@@H]1CN(C)C(=O)NC1CCCCC1
-7	COc1ccccc1C(=O)N1C[C@@H]2[C@H](c3ccccc31)[C@H](CO)N2CC1CCCC1
-10	C[C@H]1CN([C@@H](C)CO)C(=O)c2cc(NC(=O)Cc3ccccc3)ccc2O[C@@H]1CN(C)S(=O)(=O)c1cn(C)cn1

(listing goes on)
UUG fidelity	SMILES
6	C[C@@H]1CN([C@H](C)CO)C(=O)c2cc(NS(=O)(=O)c3cccs3)ccc2O[C@@H]1CN(C)C(=O)NC1CCCCC1
7	O=S(=O)(c1ccc(F)cc1)N1CCCCN2[C@H](C1)[C@@H](c1ccc(C#CC3CC3)cc1)[C@@H]2CO
19	C[C@@H]1CN([C@H](C)CO)C(=O)c2cccc(NC(=O)c3ccncc3)c2O[C@@H]1CN(C)Cc1ccc(-c2ccccc2)cc1
-9	C[C@H](CO)N1C[C@H](C)[C@@H](CN(C)C)Oc2c(NS(=O)(=O)c3ccc(Cl)cc3)cccc2C1=O
-17	O=C(O)C[C@@H]1C[C@H]2c3cc(NC(=O)Nc4ccc(F)cc4)ccc3O[C@H]2[C@H](CO)O1
-1	COCC(=O)N1CC[C@@H]2[C@@H](CO)Nc3ccc(-c4cccc(C(=O)N(C)C)c4)cc3[C@@H]21
1	Cc1ccc(S(=O)(=O)N(C)C[C@@H]2Oc3ccc(N(C)C)cc3CC(=O)N([C@@H](C)CO)C[C@H]2C)cc1
20	O=C(Nc1cc(F)ccc1F)N1C[C@H]2[C@@H](c3ccccc31)[C@@H](CO)N2Cc1ccncc1

The list continues:
UUG fidelity	SMILES
1	Cc1ccc(S(=O)(=O)Nc2ccc3c(c2)CC(=O)N([C@H](C)CO)C[C@H](C)[C@@H](CN(C)C(=O)NC(C)C)O3)cc1
-2	COC(=O)C[C@@H]1CC[C@@H]2[C@@H](COc3ccc(NC(=O)Nc4cccc(C#N)c4)cc3C(=O)N2C)O1
3	O=C(Nc1cccc(F)c1)N1CCCCN2[C@@H](CO)[C@H](c3ccc(-c4ccccc4F)cc3)[C@@H]2C1
-7	C[C@@H]1CN([C@@H](C)CO)C(=O)c2cccc(NC(=O)NC3CCCCC3)c2O[C@H]1CN(C)S(=O)(=O)c1ccc(Cl)cc1
7	O=C(CN1CCOCC1)N1CCCCN2[C@H](C1)[C@@H](c1ccc(/C=C/c3ccccc3)cc1)[C@@H]2CO
12	C[C@H]1CN([C@@H](C)CO)C(=O)c2cccc(NC(=O)C3CCCCC3)c2O[C@H]1CN(C)C(=O)Nc1ccc(F)cc1
4	O=C(C[C@H]1CC[C@H]2[C@@H](COC[C@H](O)CN2C(=O)c2ccccc2F)O1)NCc1ccc(F)cc1
0	C[C@@H]1CN([C@@H](C)CO)C(=O)Cc2cc(NS(=O)(=O)c3cccs3)ccc2O[C@H]1CN(C)CC1CC1

At a glance, 10 of the compounds above.
UUG fidelity	SMILES
-9	C[C@H](CO)N1C[C@H](C)[C@@H](CN(C)C)Oc2c(NS(=O)(=O)c3ccc(Cl)cc3)cccc2C1=O
-17	O=C(O)C[C@@H]1C[C@H]2c3cc(NC(=O)Nc4ccc(F)cc4)ccc3O[C@H]2[C@H](CO)O1
-1	COCC(=O)N1CC[C@@H]2[C@@H](CO)Nc3ccc(-c4cccc(C(=O)N(C)C)c4)cc3[C@@H]21
1	Cc1ccc(S(=O)(=O)N(C)C[C@@H]2Oc3ccc(N(C)C)cc3CC(=O)N([C@@H](C)CO)C[C@H]2C)cc1
20	O=C(Nc1cc(F)ccc1F)N1C[C@H]2[C@@H](c3ccccc31)[C@@H](CO)N2Cc1ccncc1
1	Cc1ccc(S(=O)(=O)Nc2ccc3c(c2)CC(=O)N([C@H](C)CO)C[C@H](C)[C@@H](CN(C)C(=O)NC(C)C)O3)cc1
-2	COC(=O)C[C@@H]1CC[C@@H]2[C@@H](COc3ccc(NC(=O)Nc4cccc(C#N)c4)cc3C(=O)N2C)O1
3	O=C(Nc1cccc(F)c1)N1CCCCN2[C@@H](CO)[C@H](c3ccc(-c4ccccc4F)cc3)[C@@H]2C1
-7	C[C@@H]1CN([C@@H](C)CO)C(=O)c2cccc(NC(=O)NC3CCCCC3)c2O[C@H]1CN(C)S(=O)(=O)c1ccc(Cl)cc1
7	O=C(CN1CCOCC1)N1CCCCN2[C@H](C1)[C@@H](c1ccc(/C=C/c3ccccc3)cc1)[C@@H]2CO

(continued)
UUG fidelity	SMILES
7	C[C@H]1CN([C@@H](C)CO)C(=O)c2ccccc2-c2ccccc2CO[C@H]1CN(C)C(=O)Oc1ccccc1
3	CCN1[C@@H]2c3ccc(C4=CCCCC4)c(=O)n3C[C@@H]2[C@@H](CO)[C@@H]1C(=O)N(C)C
-1	C[C@@H]1CN([C@@H](C)CO)C(=O)c2cccc(NS(=O)(=O)c3cn(C)cn3)c2O[C@H]1CN(C)C(=O)Nc1cccc2ccccc12
-19	C[C@@H]1CN([C@H](C)CO)C(=O)c2cc(NC(=O)CCN3CCOCC3)ccc2O[C@@H]1CN(C)C(=O)Nc1ccc(C(F)(F)F)cc1
2	C[C@H](CO)N1C[C@H](C)[C@@H](CN(C)Cc2ccc(Oc3ccccc3)cc2)Oc2c(NC(=O)Nc3cccc4ccccc34)cccc2C1=O
-4	C[C@H](CO)N1C[C@H](C)[C@@H](CN(C)Cc2ccc(C(=O)O)cc2)Oc2ccc(NC(=O)Nc3cccc4ccccc34)cc2CC1=O
-6	O=C(c1ccccc1)N1C[C@H]2[C@@H](c3ccccc31)[C@H](CO)N2C(=O)c1ccccn1
-10	CCS(=O)(=O)N1CCCCN2[C@@H](CO)[C@H](c3ccc(-c4ccccc4F)cc3)[C@@H]2C1

(cont.)
UUG fidelity	SMILES
9	C[C@@H]1CN([C@@H](C)CO)C(=O)c2cccc(NC(=O)C3CCCCC3)c2O[C@H]1CN(C)C(=O)Nc1ccc(F)cc1
3	C[C@@H]1CN([C@H](C)CO)C(=O)c2cc(NS(=O)(=O)c3cccs3)ccc2O[C@@H]1CN(C)C(=O)Nc1ccc2c(c1)OCO2
10	Cc1noc(C)c1NC(=O)Nc1ccc2c(c1)C(=O)N([C@H](C)CO)C[C@H](C)[C@@H](CN(C)C)O2
-1	CC(=O)N1[C@H](CO)[C@H]2c3ccccc3N(S(=O)(=O)c3ccccc3)C[C@H]21
-8	CCC(=O)N1CCCCN2[C@H](CO)[C@H](c3ccc(-c4cccc(C(=O)N(C)C)c4)cc3)[C@@H]2C1
20	Cc1ccc(S(=O)(=O)N(C)C[C@H]2Oc3ccc(NC(=O)NC(C)C)cc3CC(=O)N([C@@H](C)CO)C[C@@H]2C)cc1
-4	O=C(C[C@H]1CC[C@H]2[C@@H](COC[C@@H](O)CN2CC2CCCCC2)O1)NCc1ccc(Cl)cc1
6	O=C(C[C@H]1C[C@@H]2c3cc(NC(=O)Nc4ccccc4F)ccc3O[C@@H]2[C@@H](CO)O1)NCCc1ccccc1

(cont.)
UUG fidelity	SMILES
8	CN1c2ccc(-c3ccccc3)cc2[C@H]2[C@H](CCN2C(=O)c2ccccc2F)[C@H]1CO
2	C[C@@H]1CN([C@@H](C)CO)C(=O)c2cccc(NS(=O)(=O)c3ccc(F)cc3)c2O[C@@H]1CN(C)Cc1ccc(C(=O)O)cc1
-19	O=C(Nc1ccccc1)[C@@H]1[C@@H](CO)[C@@H]2Cn3c(cccc3=O)[C@H]1N2Cc1ccncc1
-4	C[C@H]1CN([C@@H](C)CO)C(=O)c2cccc(NC(=O)Nc3ccc4c(c3)OCO4)c2O[C@@H]1CN(C)Cc1ccc(Oc2ccccc2)cc1
-7	CN1CCCCN2[C@H](CO)[C@H](c3ccc(-c4ccccc4)cc3)[C@H]2C1
-5	COCC(=O)N1CC[C@H]2[C@@H]1c1cc(-c3ccc(OC)cc3)ccc1N(C)[C@H]2CO
-10	CN(C)C(=O)c1ccc(-c2ccc3c(c2)[C@@H]2[C@@H](CCN2S(=O)(=O)c2cn(C)cn2)[C@@H](CO)N3)cc1
7	CCC(=O)N1[C@@H](CO)[C@@H](c2ccccc2)[C@@H]1CN(C(C)C)S(C)(=O)=O

(more compounds)
UUG fidelity	SMILES
-17	CC(=O)N1CC[C@H]2[C@@H]1c1cc(-c3ccc(C#N)cc3)ccc1N(C)[C@H]2CO
-25	C/C=C/c1ccc([C@H]2[C@@H](CNC(C)=O)N(Cc3ccccn3)[C@H]2CO)cc1
-23	CS(=O)(=O)Nc1ccc2c(c1)[C@@H]1C[C@@H](CC(=O)NCc3ccccc3F)O[C@H](CO)[C@@H]1O2
8	COc1ccc(S(=O)(=O)Nc2cccc3c2O[C@H](CN(C)S(=O)(=O)c2cn(C)cn2)[C@H](C)CN([C@@H](C)CO)C3=O)cc1
-9	C/C=C/c1ccc([C@H]2[C@@H](CO)N(C(=O)CC)[C@H]2CNC(=O)CC2CC2)cc1
